# Compound activity deposited in PubChem by National Center for Advancing Translational Sciences (NCATS).
# Rango release inh: inhibitors of RanGTP-induced Rango-importin beta complex dissociation | actives 0.071% (n = 340,000) | Biochemical FRET Rango-importin beta, RanGTP-induced dissociation | Potency, µM (titrated, usually from 46.1 µM), without a hit: at the top dose activity change, negative = inhibition; active means falling FRET ratio curve, often poorly fitted, with flat reads before Ran was added; inconclusive means other falling curves, or compound fluorescence or quenching; inactive means flat or rising ratio curve;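 note: potency is the fitted concentration of half-maximal effect; % of control where 0% means no effect; nearly all actives have a fitted effect of over 45% in size; -100% = wells without RanGTP and RCC1; the record marks most hits as doubtful in a second field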
#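 Two FRET readings bracket the reaction: one 5 min after compound meets Rango–importin beta, another 45 min after RanGTP-RCC1 (0.6 uM Ran, 0.2 uM RCC1, 2 mM GTP) is added. Only the second defines inhibition.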
# Rango-impB inh: prevents formation of the Rango-importin beta complex | Q14974 | Rango CFP/YFP FRET sensor + importin beta, 45 min | Potency, µM (titrated, usually from 92.2 µM), for inactives: top-dose inhibition of complex formation | actives 0.031% (n = 340,000) | AID 540263; active = rising FRET ratio curve, often small or poorly fitted; inconclusive = mostly compound fluorescence or quenching in the first reads; inactive = flat curves in all reads;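 note: potency is the fitted concentration of half-maximal effect; 0% = DMSO wells and 100% = buffer wells lacking importin beta; nearly all actives have a fitted effect of over 15% in size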
#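 FRET biosensor Rango (snurportin 1 IBB between N-terminal EYFP and C-terminal Cerulean), 50 nM in PBS/1 mM DTT/0.02% Tween-20/0.1% BSA, preincubated 5 min RT with compound; 0.125 microM importin beta added, 45 min RT, CFP/YFP FRET ratio read.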
# miR-21 FLuc: raises the signal of a miR-21 reporter. HeLa miR-21 FLuc reporter, luciferase, 48 h. 340,000 tested, under 10 active. Potency, µM (top dose mostly 38.3 µM), for the others: at the top dose reporter change, positive = more light; active = well fitted rising curve with a large enough effect; inconclusive = small, poorly fitted or top-dose-only effect; inactive = no such curve, though single readings can be large or run the other way;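 note: % of control where 0% means no effect; miR-21 action dims this reporter so a rising signal means less miR-21 action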
#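 HeLa cells stably expressing CMV-driven firefly luciferase with a downstream miR-21 binding sequence, endogenously expressing miR-21, were treated with titrations (up to about 40uM final) for 48 hours at 37 degree Celsius. Luciferase luminescence was read after lysis.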
# GLA inh pH 4.5: blocks human alpha-galactosidase A at pH 4.5; P06280; purified enzyme, 4-MU-alpha-Gal fluorescence, pH 4.5; activity change, negative = inhibition, % at 105 µM; 230,000 tested, under 10 active; AID 1467; inconclusive = small, poorly fitted or top-dose-only inhibition, or a rising curve; inactive = flat fitted curve, though single readings scatter; no compound was filed as active;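 note: 0% = full activity with enzyme and -100% = basal without enzyme; dose as in the result columns while the protocol names 77 µM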
# Target sequence (P06280 whole entry, looked up): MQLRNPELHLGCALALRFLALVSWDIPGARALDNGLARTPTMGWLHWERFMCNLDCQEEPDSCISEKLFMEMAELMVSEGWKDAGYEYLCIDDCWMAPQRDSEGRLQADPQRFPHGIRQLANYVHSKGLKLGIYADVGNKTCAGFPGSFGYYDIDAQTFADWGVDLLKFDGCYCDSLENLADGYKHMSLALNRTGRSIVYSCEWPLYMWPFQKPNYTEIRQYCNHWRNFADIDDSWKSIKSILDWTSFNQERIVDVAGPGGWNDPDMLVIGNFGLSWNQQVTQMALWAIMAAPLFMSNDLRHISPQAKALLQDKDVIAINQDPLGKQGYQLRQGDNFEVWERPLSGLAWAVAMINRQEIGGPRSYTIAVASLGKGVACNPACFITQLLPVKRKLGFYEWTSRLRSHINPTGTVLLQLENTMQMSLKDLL
# * marks the source's active call; other numbers are inactive results; u = inconclusive; x = not tested or not shown; & = joins results of further samples. The list is partial, so the mix of outcomes need not match the whole.
SMILES,Rango release inh,Rango-impB inh,miR-21 FLuc,GLA inh pH 4.5
CC(=O)Nc1ccc(C(=O)OCc2ccccc2Cl)cc1,-19.9%,-0.5%,-47.5%,-16.4
CCc1noc(C)c1C(=O)N1CCN(S(=O)(=O)c2c(C)cc(C)cc2C)CC1,3.0%,-3.7%,x,x
CN(C)C(=O)[C@H]1C[C@H]1[C@@H](O)[C@H](CO)NC(=O)[C@H](COCc1ccccc1)NC(=O)OC(C)(C)C,20.8%,0.6%,-1.7%,x
CCOC(=O)c1ccc(NC(=O)CCc2nc(-c3cccc(C)c3)no2)cc1,-13.6%,2.3%,24.4%,-6.6
COCC(C)n1c(COc2ccccc2F)nnc1SCC(=O)c1c(N)n(C)c(=O)n(C)c1=O (centres undefined),-25.4%,u,-1.0%,9.4
COc1ccc(C(C)NC(=O)c2ccc(Cl)cc2)cc1OC (centres undefined),-9.5%,-1.2%,-6.2%,-5.5
CC(C(=O)NCC(=O)Nc1ccc(F)c(F)c1F)N1CCN(Cc2ccc(C#N)cc2)CC1 (centres undefined),1.2%,5.3%,x,x
CCN(CC)C(=O)C(=O)c1cccn1-c1ccccc1C#N,-0.5%,3.4%,-3.2%,3.1
COc1ccc(C(=O)NCc2ccc(F)cc2)cc1S(=O)(=O)N1CCCC1,-5.7%,-1.6%,x,x
N#CC1=C(N)N(c2ccc(F)cc2)C2=C(C1c1ccc(O)cc1)S(=O)(=O)CC2 (centres undefined),-18.7%,u,0.3%,-5.7
COc1cccc(NC(=O)c2cccc(N3C(=O)C4CCC(C)CC4C3=O)c2)c1 (centres undefined),-6.5%,1.6%,-2.6%,x
CN(C(=O)CSc1ncnc2sc(-c3ccccc3)cc12)C1CCS(=O)(=O)C1 (centres undefined),1.0%,4.2%,-18.9%,u
CCOc1ccc(OCC)c(NS(=O)(=O)c2ccc3c(c2)CCN3C(=O)C2CCC2)c1,-13.9%,-0.4%,-3.4%&-2.9%,5.2
CCC(C)(C)NC(=O)C(c1ccc(F)cc1)N(Cc1ccc(OC)cc1)C(=O)c1cnccn1 (centres undefined),0.6%,0.0%,-43.7%,-3.6
Cc1ccc(C)c(Nc2cc(C)nc3ccccc23)c1,12.3%,1.4%,x,x
CCOc1ccc(C2=Nn3c(nnc3-c3ccccc3)SC2)cc1Cl,2.5%,-1.5%,-9.6%,-1.3
CC(C)CCNc1nc2c(c(=O)n(Cc3cccc(F)c3)c(=O)n2C)n1C,0.1%,3.1%,28.2%,0.4
COc1ccc(C(=O)/C=C/Nc2ccc(S(N)(=O)=O)cc2)cc1OC,u,u,-14.2%,2.2
Cc1c(NC(=O)Nc2cc(Cl)ccc2Cl)c(=O)n(-c2ccccc2)n1C,5.1%,-3.0%,-1.4%,x
CSCCC(NS(=O)(=O)c1ccc(Br)cc1)C(=O)OCC(=O)NC1CC1 (centres undefined),-17.2%,-4.1%,0.1%,-6.7
CC1CC(C)(C)NC(=S)N1CC(=O)N1CCN(Cc2ccccc2)CC1 (centres undefined),26.2%,7.1%,0.1%,1.5
COc1ccc(-c2csc(NC(=O)CSc3n[nH]c(C)n3)n2)cc1,-3.1%,1.0%,-49.0%,x
C=CCOc1ccc(-c2nc3c(c(=O)[nH]c(=O)n3CCCC)n2C)cc1Br,9.9%,-1.3%,-8.2%,x
CN(C)S(=O)(=O)c1ccc(C(=O)NCC(=O)N/N=C/c2ccccc2Cl)cc1,-3.9%,-2.7%,-2.3%,6.0

# Record cards, from the list above. Order of screens: Rango release inh, Rango-impB inh, miR-21 FLuc, GLA inh pH 4.5
# `COc1ccc(C(=O)/C=C/Nc2ccc(S(N)(=O)=O)cc2)cc1OC` in the list: u, u, -14.2%, 2.2
# `C=CCOc1ccc(-c2nc3c(c(=O)[nH]c(=O)n3CCCC)n2C)cc1Br` in the list: 9.9%, -1.3%, -8.2%, x
# `Cc1ccc(C)c(Nc2cc(C)nc3ccccc23)c1` in the list: 12.3%, 1.4%, x, x
# `CCOc1ccc(OCC)c(NS(=O)(=O)c2ccc3c(c2)CCN3C(=O)C2CCC2)c1` in the list: -13.9%, -0.4%, -3.4%&-2.9%, 5.2

# Sorted by molar mass (ascending): some entries from above
SMILES,Rango release inh,Rango-impB inh,miR-21 FLuc,GLA inh pH 4.5
CCOc1ccc(C2=Nn3c(nnc3-c3ccccc3)SC2)cc1Cl,2.5%,-1.5%,-9.6%,-1.3
CCOc1ccc(OCC)c(NS(=O)(=O)c2ccc3c(c2)CCN3C(=O)C2CCC2)c1,-13.9%,-0.4%,-3.4%&-2.9%,5.2
CCC(C)(C)NC(=O)C(c1ccc(F)cc1)N(Cc1ccc(OC)cc1)C(=O)c1cnccn1 (centres undefined),0.6%,0.0%,-43.7%,-3.6

# Remaining list, next part.
SMILES,Rango release inh,Rango-impB inh,miR-21 FLuc,GLA inh pH 4.5
O=C1CC(N2CCSCC2)C(=O)N1c1ccccc1 (centres undefined),-4.6%,-4.9%,-0.2%,3.9
Cc1sc(N)c(C(=O)c2ccccc2)c1C,-10.2%,-1.7%,-2.0%,3.2
O=C1NC2C(NC(=O)N2C2CCCCC2)N1C1CCCCC1 (centres undefined),-2.0%,0.7%,-2.8%,8.3
CCOc1ccccc1N1CCN(C(=O)c2c(Cl)cnn2C)CC1,8.0%,-4.0%,-5.5%,x
CCOC(=O)N1CCC(N2C(=O)c3ccc(C(=O)Nc4ccc(OC)cc4)cc3C2=O)CC1,-3.3%,-2.4%,-0.7%,x
COC(=O)C1=C(C)NC2=C(C(=O)CC(c3cccs3)C2)C1c1ccsc1 (centres undefined),-11.6%,u,26.6%,-15.3
O=C(Nc1ccccc1)c1ccc2c(c1)OCCO2,1.9%,-9.1%,-26.4%,-2.1
CCC(C)N(C(=O)COC(=O)c1nc(Cl)ccc1Cl)C1CCS(=O)(=O)C1 (centres undefined),-15.9%,3.6%,x,x
CC(=O)c1ccc(S(=O)c2ccccc2)cc1 (centres undefined),0.8%,-2.5%,-0.5%,-2.4
CCN(CC(=O)Nc1ccc(OC)cc1)CC(=O)Nc1ccc(Br)cc1F,7.9%,-3.6%,-11.6%,0.4
Cc1cc(=O)n(C(C)Cc2ccccc2)n1C(C)Cc1ccccc1 (centres undefined),-0.1%,5.6%,x,x
N#Cc1c(Nc2ccccc2C(F)(F)F)s[nH]c1=O,-4.9%,5.2%,3.6%,6.3
O=C(c1ccc(Cl)c(S(=O)(=O)N2CCOCC2)c1)N(c1ccccn1)C1CCCCC1,13.9%,-5.0%,-1.9%,-20.2
S=C(NCCc1ccc(Cl)cc1)NCc1ccccc1,-1.6%,-0.1%,-6.9%,x
Cc1ccc(C(C)C)c(OCC(O)CN2CCc3ccccc3C2)c1 (centres undefined),-10.3%,1.0%,23.5%,x
Cc1ccc(C)c(-c2ccc(=O)n(Cc3ccc(F)cc3Cl)n2)c1,4.8%,1.0%,2.8%&-2.8%,x
C/C(=N\NC(=O)c1cccc(S(=O)(=O)N2CCOCC2)c1)c1ccc(C)cc1,8.9%,7.0%,x,x
O=[N+]([O-])c1cccc(NC2=NCCC2)c1,1.9%,1.9%,4.0%,-7.1
CCOC(=O)N1CCC(NC(=O)C2CCN(C(=O)N3CC(C)Oc4ccc(C)cc43)CC2)CC1 (centres undefined),-3.5%,-2.7%,2.8%,11.7
CCOc1ccc(CCNC(=O)c2cc(C)nc3ccccc23)cc1OCC,-1.7%,u,5.2%,x
CCc1cccc(C)c1NC(=S)NCc1cccn1C,7.9%,6.5%,0.6%,5.6
CC(C#N)(Nc1ccc(Cl)cc1)c1cccnc1 (centres undefined),16.5%,0.9%,-12.0%,-13.8
C[C@@H](C(=O)N[C@@H](Cc1c[nH]c2ccccc12)C(=O)O)n1nnc2ccccc2c1=O,2.9%,-0.1%,-0.6%,1.8
CC(=O)OC1CCC(OC(C)=O)c2c1n([O-])c(C)c(C)[n+]2=O (centres undefined),-5.5%,-0.7%,-1.1%,0.0
Cc1csc(SCCn2c(Br)nc3c2c(=O)[nH]c(=O)n3C)n1,6.7%,-3.1%,0.3%,9.0
CCN1CCN(C(=O)c2cc3c(s2)-c2ccccc2S(=O)(=O)C3)CC1,0.8%,-1.5%,-9.4%,-8.6
COCCN1CC(C(=O)NCCc2nc(C)c(C)s2)CCC1=O (centres undefined),-6.3%,2.9%,-1.1%,x
NC(=O)CN1CCN(C2CC(=O)N(CCc3ccccc3)C2=O)CC1 (centres undefined),-8.2%,-0.9%,-0.6%,9.3
CC(=O)NCc1ccc(-c2csc(-c3cccs3)n2)cc1,-8.4%,-3.5%,-40.4%,x
CC(C)c1ccc(NC2CCCN(C(=O)CCN3CCCO3)C2)cc1 (centres undefined),-2.8%,0.5%,-4.0%,x
CCN1C(=S)SC(=O)C1=C1C=C(C)OC(C)=C1,-0.7%,u,-21.2%,-0.6
COCCOC(=O)c1c(C)oc2ccc(OC(=O)c3c(OC)cccc3OC)cc12,-12.5%,-1.8%,17.0%,-14.7
Cc1ncc(CN2CCN(Cc3ccc(F)cc3)C(CCO)C2)s1 (centres undefined),-1.5%,1.8%,-2.2%,9.6
O=[N+]([O-])c1cccnc1Oc1ccc(F)cc1,-0.6%,-1.6%,-8.9%,-3.2
Cc1cccc(CCN2C(Nc3ccccc3)=NC[C@@H]2CC(C)C)c1,12.7%,-5.8%,x,x
Nc1c(Cl)ncnc1N/N=C/c1cccc(O)c1,-2.6%,-1.5%,-61.7%,0.5
CC(C)Sc1nc2c(c(=O)n1-c1ccc(F)cc1)SCC2,4.4%,1.3%,-14.6%,-3.0
CCCCNS(=O)(=O)c1ccc2nc(SCC(=O)N3CC(C)OC(C)C3)[nH]c2c1 (centres undefined),-7.5%,-0.5%,-0.7%,5.8
CCN(C(=O)Cn1c(=O)oc2cc(S(=O)(=O)N3CCOCC3)ccc21)c1ccccc1,13.2%,-0.4%,3.2%,-4.6
O=C(COc1cc2oc(=O)cc(-c3ccccc3)c2cc1Cl)NC(Cc1c[nH]c2ccc(O)cc12)C(=O)O (centres undefined),-2.3%,u,1.7%,x
COc1ccc(NC(=O)CN(c2ccc(C)cc2)S(=O)(=O)c2c(C)nn(C)c2C)cc1OC,9.6%,-0.7%,-32.6%,4.8
O=S(=O)(c1ccc(-c2csc(=Nc3ccccc3)n2CCCN2CCOCC2)cc1)N1CCOCC1,17.4%,4.8%,0.2%,7.6
C/C(=N\Nc1nccnc1Cl)c1ccc(O)c(C)c1,-5.7%,0.1%,-23.6%,x
COc1ccc(S(=O)(=O)N(CCCN2CCCC2=O)Cc2cc3c(C)cc(C)cc3[nH]c2=O)cc1,-9.3%,0.4%,-20.0%,-1.5
O=C(Cc1ccsc1-c1ccccc1)NO,7.7%,0.1%,-5.4%,-3.8
O=C(CN1C(=O)c2ccccc2S1(=O)=O)c1ccc2c(c1)OCCCO2,1.3%,3.4%,u,-10.3
Cc1ccc(N2CCN(C(=O)c3ccccc3NC(=O)c3ccccc3C(=O)O)CC2)cc1,-0.4%,-3.4%,-38.3%,3.7
Cc1ccc([C@H]2C(C(=O)O)=CC[C@@H](c3ccc(Cl)c(Cl)c3)N2S(=O)(=O)c2ccc(C)cc2)cc1,20.9%,4.1%,x,x
CC(=C/c1ccco1)/C=N/NC(=O)Cc1cccn1C,-18.4%,0.4%,-13.8%,-1.9
Cc1cccc(-n2c(Cc3cc(=O)[nH]c(=O)[nH]3)nnc2SCC(=O)N2CCCCC2)c1,-0.9%,0.4%,-4.3%,3.9
O=[N+]([O-])c1ccc(-c2ccc(/C=N/O)o2)cc1,-19.9%,7.1%,-29.3%,-7.3
COc1ccc(OC)c(NC(=O)CSc2nnc(CNC(=O)c3cc(OC)c(OC)c(OC)c3)o2)c1,-4.1%,-0.9%,0.9%,x
CC(C)C(=O)N1CCC2(CC1)Oc1ccc(Cl)cc1C(=O)C21CC(c2ccc(Cl)cc2)=NO1 (centres undefined),-14.2%,0.5%,5.8%,-4.2
O=C(CCCN1C(=O)c2cccc3cccc(c23)C1=O)N1CCN(Cc2ccc3c(c2)OCO3)CC1,6.7%,6.3%,-5.6%,-9.2
CC1=CCC(C(=O)O)C(C(=O)NC2CCCCC2)C1 (centres undefined),16.2%,0.2%,7.2%,x
